Screening results from PubChem BioAssay.
Ecoli growth: inhibitors of Escherichia coli growth; OD600, 23 h; stronger effect = lower value; OD600 absorbance (concentration not given with the values); 0.21% of 330,000 active; AID 1053175;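 active means OD600 absorbance below the run mean of sample wells minus 3.6 SD, in any replicate, cut at about 0.56 in these data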;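 further: stock transfer was 300 nL into about 60 µL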
UCH37 inh: human UCH37 deubiquitinating enzyme inhibition; inhibition, % (concentration not given with the values); Q9Y5K5; 0.33% of 330,000 active; purified proteasome/UCH37, Ub-AMC cleavage fluorescence; AID 588478;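 active means mean of two replicates above 20%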;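 further: 0% = compound-free wells with enzyme and 100% = wells lacking proteasome; stock transfer was 100 nL into about 20 µL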
Target sequence (Q9Y5K5 whole entry, looked up): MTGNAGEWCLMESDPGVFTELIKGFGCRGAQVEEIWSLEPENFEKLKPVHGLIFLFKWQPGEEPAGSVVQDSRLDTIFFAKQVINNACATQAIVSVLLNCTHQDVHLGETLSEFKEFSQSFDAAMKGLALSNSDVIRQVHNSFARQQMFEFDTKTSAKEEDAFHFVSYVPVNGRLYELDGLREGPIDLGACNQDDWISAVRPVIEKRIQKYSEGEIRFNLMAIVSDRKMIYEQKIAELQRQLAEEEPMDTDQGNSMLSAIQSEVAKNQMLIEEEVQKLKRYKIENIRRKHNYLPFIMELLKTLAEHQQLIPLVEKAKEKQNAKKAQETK
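Material: human UCH37 enzyme supplied as purified proteasome complex / Amount: 0.15 nM proteasome as dispensed / Buffer or medium: pH 7.4 Tris-HCl (50 mM) with ovalbumin, ATP-MgCl2, DTT / Times: preincubation 30 min, reaction 25 min, room temperature / Technique: AMC fluorescence from Ub-AMC cleavage, excitation 355 nm, emission 460 nm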
* = called active by the depositor. Only part of the results is shown; rates above refer to the full screens.

SMILES	Ecoli growth	UCH37 inh
O=C(NN=Cc1ccc2c(c1)OCO2)c1ccc(NC(=O)c2ccc(F)cc2)cc1	0.7	-29
COc1ccc(C=NNC(=O)C(=O)NCc2cccnc2)cc1OC	0.73	5.7
COc1cc(C=NNC(=O)c2cc(O)cc(O)c2)ccc1OC(=O)c1ccccc1	0.68	5.8
CN(C)c1ccc(C=NNC(=O)c2ccc(Cl)cc2)cc1	0.63	-139
O=C(NN=Cc1coc2ccccc2c1=O)c1cc(Br)c(O)c(Br)c1	0.63	-39
Cc1ccnc(N/C=C(/NC(=O)c2ccccc2)C(=O)NN=Cc2ccc(Cl)cc2)n1	0.66	8.2
CCOc1cc(C=N/N=C2/NC(=O)C(CC(=O)O)S2)ccc1OS(=O)(=O)c1ccc(C)cc1 (stereo not drawn)	0.69	15
N#CC(=NNc1ccc(Br)cc1)C(=N)N1CCOCC1	0.65	18
COc1ccc(NS(=O)(=O)c2cccc(C(=O)NN=C(C)c3ccc(-n4ccnc4)cc3)c2)cc1	0.76	-11
Cc1ccc([N+](=O)[O-])cc1N1C(=O)CSC1=NNC(=O)c1cccnc1	0.71	1.2
O=C(NN=Cc1cccc2ccccc12)c1ccc(CN2CCOCC2)cc1	0.67	4.1
O=C(Nc1nc2ccccc2n1CCN1CCCCC1)c1ccc(Cl)cc1	0.75	-53
CC(=O)Nc1ccc(-c2csc(NN=Cc3ccncc3)n2)cc1	0.72	2.4
Oc1ccc(C=NNc2ncc(Cl)cc2Cl)cc1	0.68	0.8
O=C(ON=Cc1ccc(N2CCCCC2)c([N+](=O)[O-])c1)c1ccc(Cl)cc1Cl	0.75	-1.6
Cc1ccc(NCC(=O)NN=Cc2cc3ccccc3nc2Cl)cc1	0.77	6.4
Cc1cc(C(=O)NN=Cc2cccs2)no1	0.68	10
CCCc1cc(=O)[nH]c(N=C(N)Nc2ccccc2)n1	0.7	3.9
COc1ccc(Cl)cc1N(CC(=O)NN=Cc1ccc(OCC(N)=O)cc1)S(C)(=O)=O	0.62	4.3
Cn1ncc(Br)c1C(=O)NN=Cc1ccc(OS(=O)(=O)c2ccccc2)cc1	0.73	-0.2
COc1cccc(C=Nn2c(COc3ccccc3)n[nH]c2=S)c1O	0.66	6.1
O=C(CN1CCOCC1)NN=Cc1cccc2ccccc12	0.62	6.8
COc1ccc(N(C(C)C(=O)NN=Cc2cccnc2)S(C)(=O)=O)cc1 (stereo not drawn)	0.69	-1.4
O=[N+]([O-])c1cc(C(F)(F)F)ccc1NN=Cc1cc2ccccc2nc1Cl	0.75	3.0
Cc1cc(C)n(Cc2cccc(C(=O)NN=Cc3cccnc3)c2)n1	0.71	5.9
CC(CC(=O)Nc1cc(Cl)ccc1Cl)=NNC(=O)c1ccco1	0.72	1.5
COc1ccc(C(=O)NN=C2CCc3ccccc32)cc1OC	0.67	7.5
COc1cc(C(=O)ON=C2C=CC(=O)C=C2C)cc(OC)c1OC	0.69	6.3
CCc1n[nH]c(=S)n1N=Cc1ccccc1OCc1ccc(Cl)cc1	0.74	4.4
COC(=O)c1[nH]c2cccc(OC)c2c1NC(=O)CCN1CCN(c2ccccc2F)CC1	0.75	-11
COc1ccc(C=NNC(=O)c2cccc([N+](=O)[O-])c2)cc1OC(=O)c1ccc(C)cc1	0.72	2.9
COc1cc(C=NNc2nnc3c(n2)[nH]c2ccccc23)ccc1O	0.71	6.6
Cc1nc2ccc(Br)cn2c1C(=O)NN=Cc1ccccc1Cl	0.75	6.7
O=C(NN=Cc1ccccn1)c1ccc(NN=Cc2ccccn2)cc1	0.7	8.1
Cc1cc(C)nc(SCc2ccc(C(=O)NN=C3CCCC(=O)C3)cc2)n1	0.7	3.9
COc1ccc(NC(=O)c2cc3ccc(O)cc3oc2=NO)cc1	0.72	4.5
COc1cccc(-c2c(C(=O)NN=C(C)c3ccncc3)nnn2-c2nonc2N)c1	0.7	2.2
Cc1ccsc1C=NNC(=O)Cc1ccc(Cl)cc1	0.74	4.5
CC(CC1(O)C(=O)Nc2ccccc21)=NO (stereo not drawn)	0.71	1.1
CC(=NNc1cccc([N+](=O)[O-])c1)c1cc2ccccc2o1	0.7	4.8
CCOC(=O)N1CCN(c2nc3c(c(=O)[nH]c(=O)n3C)n2Cc2ccccc2Cl)CC1	0.64	0.7
ON=C1CCCC/C1=C\c1ccccc1	0.69	6.1
N#Cc1cccc2c1-c1ccccc1C2=NNC(N)=O	0.61	1.6
NC(=NOC(=O)Cc1ccccc1[N+](=O)[O-])c1cccc(Br)c1	0.68	1.1
COc1cc(C=NO)ccc1OCc1ccccc1Cl	0.7	3.7
CC(=NNc1ccc([N+](=O)[O-])cc1)c1ccc(N2CCOCC2)cc1	0.72	1.8
CC(=NNC(=O)CSc1nc(C)cc(C)n1)c1cccc([N+](=O)[O-])c1	0.72	-0.6
CC(=NNC(=S)NC(C)C)c1ccc(-n2ccnc2)cc1	0.74	5.8
COc1cc(C(=O)NCC(=O)NN=C(C)c2cccs2)cc(OC)c1OC	0.68	6.3
Cc1cccc(C(=O)Oc2ccc(C=NNC(=O)c3cc(O)cc(O)c3)cc2)c1	0.64	4.2

A second format for 15 compounds above:
Order of values: Ecoli growth, UCH37 inh
Cc1nc2ccc(Br)cn2c1C(=O)NN=Cc1ccccc1Cl
 : 0.75, 6.7
O=C(NN=Cc1ccccn1)c1ccc(NN=Cc2ccccn2)cc1
 : 0.7, 8.1
Cc1cc(C)nc(SCc2ccc(C(=O)NN=C3CCCC(=O)C3)cc2)n1
 : 0.7, 3.9
COc1ccc(NC(=O)c2cc3ccc(O)cc3oc2=NO)cc1
 : 0.72, 4.5
COc1cccc(-c2c(C(=O)NN=C(C)c3ccncc3)nnn2-c2nonc2N)c1
 : 0.7, 2.2
Cc1ccsc1C=NNC(=O)Cc1ccc(Cl)cc1
 : 0.74, 4.5
CC(CC1(O)C(=O)Nc2ccccc21)=NO (stereo not drawn)
 : 0.71, 1.1
CC(=NNc1cccc([N+](=O)[O-])c1)c1cc2ccccc2o1
 : 0.7, 4.8
CCOC(=O)N1CCN(c2nc3c(c(=O)[nH]c(=O)n3C)n2Cc2ccccc2Cl)CC1
 : 0.64, 0.7
ON=C1CCCC/C1=C\c1ccccc1
 : 0.69, 6.1
N#Cc1cccc2c1-c1ccccc1C2=NNC(N)=O
 : 0.61, 1.6
NC(=NOC(=O)Cc1ccccc1[N+](=O)[O-])c1cccc(Br)c1
 : 0.68, 1.1
COc1cc(C=NO)ccc1OCc1ccccc1Cl
 : 0.7, 3.7
CC(=NNc1ccc([N+](=O)[O-])cc1)c1ccc(N2CCOCC2)cc1
 : 0.72, 1.8
CC(=NNC(=O)CSc1nc(C)cc(C)n1)c1cccc([N+](=O)[O-])c1
 : 0.72, -0.6

Next results:
SMILES	Ecoli growth	UCH37 inh
Cc1cc(C=NNC(N)=S)c(C)n1-c1ccc(Cl)cc1	0.68	-1.9
Cn1c(NN=Cc2ccccc2)nc2sc3c(c2c1=O)CCC3	0.7	1.4
CN(C)c1ccc(C=NNC(=O)C(=O)/C=C2\NC3(CCCC3)Cc3ccccc32)cc1	0.72	10
CCCCc1c(C)nc2ccc(Br)cc2c1SCCC#N	0.66	4.2
CC(=NNS(=O)(=O)c1ccc(Cl)cc1)c1ccc(O)cc1	0.65	0.4
COc1cc(C=NNC(=O)NC2CCCCC2)ccc1O	0.67	3.1
CCn1cc(C(=O)O)c(=O)c2cc(F)c(NN=Cc3ccccc3[N+](=O)[O-])cc21	0.7	10
CC1CC(=NNC(=S)NCc2ccccc2)CC(C)(C)C1 (stereo not drawn)	0.65	6.2
Cc1cc(C)n(CCC(=O)NN=Cc2cccc([N+](=O)[O-])c2)n1	0.65	1.0
COCCCNC(=S)NN=Cc1ccc(OC)cc1	0.68	6.2
COCCCNC(=S)NN=Cc1ccc(N(C)C)cc1	0.64	-215
ON=Cc1cc(Br)ccc1OCc1ccc(F)cc1	0.67	1.6
Cc1ccc(C=Nn2c(C)nnc2C)o1	0.71	2.9
CCN(CC)Cc1c(C(=O)NN=Cc2ccc(OCc3ccccc3C)cc2)nnn1-c1nonc1N	0.63	1.4
Cc1cccc(C(=O)ON=C(c2ccccc2)c2cccnc2)c1	0.67	1.2
Cc1nn(-c2ccccc2)c(N2CCCC2)c1C=NNC(=S)Nc1ccccc1C(F)(F)F	0.73	0.5
O=C(NN=Cc1cccc(O)c1)c1ccc(NC(=O)C2CCCCC2)cc1	0.63	3.1
Nc1nc2ccccc2n1N=Cc1ccc(Br)cc1	0.56	-4.0
FC(F)(F)c1ccccc1C=Nn1c(C2CCCCC2)n[nH]c1=S	0.65	7.0
Nc1nonc1-n1nnc(C(=O)NN=Cc2ccc(Br)cc2)c1-c1ccc2c(c1)OCO2	0.65	0.4
O=C(NN=Cc1ccc(O)cc1)/C(=C/c1ccc([N+](=O)[O-])cc1)NC(=O)c1ccccc1	0.76	9.7
Cc1nn(C)c(C)c1C=NN=C1CCC2C3CCc4cc(O)ccc4C3CCC12C (stereo not drawn)	0.68	3.0
CCCCOc1ccc(C=NNC(=S)Nc2cc(C)ccc2C)cc1	0.75	2.0
CC(=NNC(=O)c1c(C)nc2ccccn12)c1ccc(C(C)(C)C)cc1	0.68	2.3
COc1ccccc1C=NNC(=O)COCC(=O)NN=Cc1ccccc1OC	0.7	6.4
CC(CC(=O)NC(C)(C)C)=NNC(=O)c1ccccc1N	0.68	-398
Cc1ccc(C=Nn2c(-c3ccco3)n[nH]c2=S)cc1	0.6	2.5
COc1cc(C(C)=NNC(=O)c2cccc(S(=O)(=O)N3CCCC3)c2)cc(OC)c1OC	0.7	5.6
COc1ccc(C(C)=NNC2=NCCN2)cc1Cl	0.65	3.2
O=C(NN=Cc1ccccc1F)c1cc2c(ccc3ccccc32)o1	0.71	-90
Fc1ccc(C=NNc2ncnc3nc[nH]c23)cc1F	0.69	15
O=C1c2ccccc2NC(c2ccccc2)N1N=Cc1ccccc1 (stereo not drawn)	0.74	-2.4
Cc1ccc(SCC(=O)NN=Cc2ccco2)cc1	0.61	-0.2
CC(=NNc1ncc(Cl)cc1Cl)c1ccc(C#N)cc1	0.71	-15
Cc1ccc(OCCn2cc(C=NNC(=O)c3ccncc3)c3ccccc32)cc1	0.63	3.0
COc1ccc(C(=O)NN=C(C)c2ccc(N3CCCCC3)cc2)cc1	0.69	-125
CC(=NNc1ccnc2cc(Cl)ccc12)c1ccc(N)cc1	0.58	0.1
COc1ccccc1/C=C/C=NNC(=O)c1ccco1	0.68	-12
CCOC(=O)c1c(C)nc2c(c1C)C(=NO)CC(C)(C)C2	0.7	1.7
Cc1ccc(C=NN2CCOCC2)s1	0.71	2.6
Cc1ccc2nc(C)c(C(=O)NN=Cc3cccc([N+](=O)[O-])c3)cc2c1	0.66	3.2
c1ccc(-n2ncc3c2ncn2c(C4CCCCC4)nnc32)cc1	0.78	-0.5
CCOc1cc(C=NNC(=O)NN(C)c2ncc(C(F)(F)F)cc2Cl)ccc1O	0.68	4.8
COc1ccccc1C(=O)ON=C(C)c1ccc(N2C(=O)C3CCCCC3C2=O)cc1 (stereo not drawn)	0.73	0.3
Cc1ccc(CN2CCN(N=C/C=C/c3ccccc3[N+](=O)[O-])CC2)cc1	0.72	4.6
O=C(CN1CCN(Cc2ccccc2Cl)CC1)NN=Cc1ccco1	0.64	3.4
COc1cccc(C=NNC(=O)c2ccc(N3CCCC3=O)cc2)c1	0.63	1.1
COc1ccccc1NC(=O)C(=NO)C(C)=NO	0.67	2.9
CCOC(=O)c1c(N=CN(C)C)sc(C)c1C	0.64	6.7
CCOC(=O)c1ccccc1NC(=O)CSc1nc2c(c(=O)n(C)c(=O)n2C)n1C	0.65	-3.8

Carrying on:
SMILES	Ecoli growth	UCH37 inh
O=C(ON=C1CCS(=O)(=O)c2sccc21)c1ccccc1	0.72	4.4
Oc1c(Br)cc(C=Nn2c(-c3ccccc3)n[nH]c2=S)cc1Br	0.62	9.4
O=C(CCNc1n[nH]c(=O)[nH]c1=O)NN=Cc1ccccc1Br	0.64	2.9
CC(C)NC(=S)NN=Cc1sc(N2CCCCC2)nc1-c1cccs1	0.71	0.1
COc1ccc(NC(=O)CCC(=O)NN=Cc2cccnc2)cc1	0.69	0.8
Nc1nnn(CC(=O)NN=Cc2ccco2)n1	0.65	-0.4
COCc1cc(C)nc(OCC(=O)NN=Cc2ccc(O)cc2)c1C#N	0.64	4.1
Cc1cccc(C(=O)NN=C2SCC(=O)N2Cc2ccccc2)c1	0.69	-2.3
CN1c2ccsc2C(=NNC(=O)c2c(F)cccc2F)CS1(=O)=O	0.72	14
CC(C)(C)c1nn2cnnc2n(N=Cc2cccc3ccccc23)c1=O	0.69	-21
Cc1ccc(C(C)C)c(OCC(=O)NN=Cc2ccc(S(=O)(=O)O)o2)c1	0.68	4.0
CC(=NNC(=O)c1cccs1)c1ccc(N2CCOCC2)cc1	0.68	2.3
C=C(C)C1CC=C(C)C(=NNC(=O)c2cccc([N+](=O)[O-])c2)C1 (stereo not drawn)	0.7	4.9
CC(CCc1ccccc1)=NNC(=O)CC(=O)NCCc1ccccc1	0.7	-0.2
CON=Cc1cn(-c2ccc(Cl)cc2)nn1	0.67	-1.9
O=C(NN=Cc1sc(N2CCOCC2)nc1-c1ccccc1)c1cccc(S(=O)(=O)N2CCOCC2)c1	0.68	-0.3
CN(C)C(=NS(=O)(=O)c1ccccc1)c1ccc([N+](=O)[O-])cc1	0.65	0.6
CN(C)N=C1C(=O)N(CN2CCN(c3ccccc3)CC2)c2ccccc21	0.69	6.2
CCOC(=O)Cc1csc(C(=NO)C(N)=O)n1	0.66	3.0
CC(=NNC(=O)CSc1nc2ccccc2s1)c1cccnc1	0.65	1.5
CCc1ccc(S(=O)(=O)N=C2C=CC(=O)c3ccccc32)cc1	0.71	7.7
O=C(NN=Cc1sc2ccccc2c1O)c1ccccc1	0.62	10
CC(=NNC(=O)CNC(=O)c1cccnc1)c1ccco1	0.67	3.6
